# Rango-impB inh: prevents formation of the Rango-importin beta complex; Rango CFP/YFP FRET sensor + importin beta, 45 min; Potency, µM (top dose mostly 92.2 µM), without a hit: top-dose inhibition of complex formation; Q14974; actives 0.031% (n = 340,000); active = rising FRET ratio curve, often small or poorly fitted; inconclusive = mostly compound fluorescence or quenching in the first reads; inactive = flat curves in all reads;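 also: potency is read from the fitted curve at half-maximal effect; 0% = DMSO wells and 100% = buffer wells lacking importin beta; nearly all actives have a fitted effect of over 15% in size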
#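 FRET biosensor Rango (snurportin 1 IBB between N-terminal EYFP and C-terminal Cerulean), 50 nM in PBS/1 mM DTT/0.02% Tween-20/0.1% BSA, preincubated 5 min RT with compound; 0.125 microM importin beta added, 45 min RT, CFP/YFP FRET ratio read.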
# miR-21 reporter: raises the signal of a miR-21 reporter. 340,000 tested, under 10 active. HeLa miR-21 FLuc reporter, luciferase, 48 h. Potency, µM (top dose mostly 38.3 µM), inactives show at the top dose reporter change, positive = more light. AID 2288; active = well fitted rising curve with a large enough effect; inconclusive = small, poorly fitted or top-dose-only effect; inactive = no such curve, though single readings can be large or run the other way;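 also: % of control where 0% means no effect; miR-21 action dims this reporter so a rising signal means less miR-21 action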
#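 HeLa cells endogenously expressing miR-21, stably carrying CMV-driven firefly luciferase with a downstream miR-21 binding site, 2000 cells/well. Titrations up to approximately 40 uM, 48 hours; luciferase luminescence read.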
# Rango dissoc inh: inhibition of RanGTP-driven Rango-importin beta dissociation; O95149+P62826; Biochemical FRET Rango-importin beta, RanGTP-induced dissociation; Potency, µM (titrated, usually from 46.1 µM), inactives show at the highest dose activity change, negative = inhibition; actives 0.071% (n = 340,000); AID 540253; active means falling FRET ratio curve, often poorly fitted, with flat reads before Ran was added; inconclusive means other falling curves, or compound fluorescence or quenching; inactive means flat or rising ratio curve;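 also: potency is read from the fitted curve at half-maximal effect; % of control where 0% means no effect; nearly all actives have a fitted effect of over 45% in size; -100% = wells without RanGTP and RCC1; the record marks most hits as doubtful in a second field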
#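 Rango (0.1 uM)–importin beta (0.25 uM) complex; RanGTP-RCC1 trigger; 45 min RT; CFP/YFP FRET read.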
# GLA inh pH 4.5: inhibitors of human alpha-galactosidase A at pH 4.5 | P06280 | purified enzyme, 4-MU-alpha-Gal fluorescence, pH 4.5 | activity change, negative = inhibition, % at 105 µM | 230,000 tested, under 10 active | AID 1467; inconclusive = small, poorly fitted or top-dose-only inhibition, or a rising curve; inactive = flat fitted curve, though single readings scatter; no compound was filed as active;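 also: 0% = full activity with enzyme and -100% = basal without enzyme; dose as in the result columns while the protocol names 77 µM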
# Target sequence (P06280 whole entry, looked up): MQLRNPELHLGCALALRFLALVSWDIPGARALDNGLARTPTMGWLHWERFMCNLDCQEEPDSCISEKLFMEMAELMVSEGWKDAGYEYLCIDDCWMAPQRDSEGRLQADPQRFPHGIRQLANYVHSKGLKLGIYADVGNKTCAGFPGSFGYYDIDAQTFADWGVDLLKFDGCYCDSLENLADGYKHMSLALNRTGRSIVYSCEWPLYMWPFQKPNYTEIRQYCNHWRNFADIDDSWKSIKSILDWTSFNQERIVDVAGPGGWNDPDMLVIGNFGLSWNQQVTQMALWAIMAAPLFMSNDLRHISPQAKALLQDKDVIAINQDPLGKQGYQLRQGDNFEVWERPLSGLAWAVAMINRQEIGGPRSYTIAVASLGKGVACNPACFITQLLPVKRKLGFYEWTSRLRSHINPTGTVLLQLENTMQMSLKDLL
# * marks the source's active call; other numbers are inactive results; ? = inconclusive; . = not tested or not shown. Some of the compounds tested; the hit share may differ from the screen's.
# The line under a structure holds: Rango-impB inh, miR-21 reporter, Rango dissoc inh, GLA inh pH 4.5
1. CCn1c2ccc(Cl)cc2c2nc3ccccc3nc21
→ ?, -7%, ?, 0
2. COc1ccccc1/C=N/NC(=O)CO
→ -1.2%, 0%, 2%, 6
3. CC1CC2=C(C(=O)O1)C(c1ccccc1)Nc1ccccc1N2 (configuration not stated)
→ 0.9%, 0%, 1%, -2
4. Cc1ccc(NC2CCCN(C(=O)c3ccccc3-c3ncc[nH]3)C2)cc1C (configuration not stated)
→ -10%, -7%, -14%, .
5. COc1ccc(Cc2nnc(SCC(=O)Nc3ccc(C)c(C)c3)o2)cc1OC
→ -2.2%, 1%, 24%, .
6. Cc1ccc(C2=C(O)C(=O)C(c3ccc(C)cc3)=C(O)C2=O)cc1
→ 3.0%, ., -14%, .
7. COc1ccc(-c2nc3ccccc3nc2-c2ccccc2)cc1
→ 3.4%, -1%, -10%, 7
8. COc1ccc2c(CCNC(=O)/C=C/c3ccc(OC)c(OC)c3)c[nH]c2c1
→ ?, 17%, 4%, .
9. c1ccc(Nc2nc(-c3ccncc3)nc3ccccc23)cc1
→ -0.5%, 1%, 10%, 5
10. c1ccc(-c2nnnn2-c2ccccn2)cc1
→ -4.6%, ., 4%, .
11. CCCn1nnc(NC(=O)c2ccc(-c3cccc(Cl)c3)o2)n1
→ 4.5%, -43%, 0%, -2
12. Cc1cc(NC(=O)Cc2ccccc2)ccc1NC(=O)c1cccs1
→ -1.5%, -3%, -8%, -3
13. O=C(NCC1CCCO1)c1ccc(S(=O)(=O)N2CCC(c3nc4ccc(Cl)cc4[nH]3)CC2)cc1 (configuration not stated)
→ -5.0%, 28%, 6%, 2
14. Cc1cc(C(=O)CCl)c(C)n1-c1c(C)n(C)n(-c2ccccc2)c1=O
→ 0.3%, 26%, 7%, -1
15. COc1ccc(C(=O)C[n+]2ccc(N(C)C)cc2)cc1
→ 1.4%, 8%, -2%, 2
16. COc1ccc(NC(=S)NCc2ccc3c(c2)cc(C)n3C)cc1
→ -2.7%, -8%, -13%, 8
17. Cc1ccc(C(=O)OCC2OC3OC(C)(C)OC3C2O)cc1 (configuration not stated)
→ -1.6%, -13%, -15%, -6
18. CCOc1ccc2oc(C(=O)OCC(=O)NCc3ccc(OC)cc3)c(C)c2c1
→ -0.4%, ., 8%, .
19. CCC1CCCCN1CCCNC(=O)CN1C(=O)COc2ccc(S(=O)(=O)N3CCC(C)CC3)cc21 (configuration not stated)
→ 0.1%, 0%, 2%, .
20. Cc1cc(C)cc(NC(=S)N(CCN2CCCCC2)Cc2ccco2)c1
→ 0.1%, 3%, 2%, -8

# 3 entries from above in another layout:
2	COc1ccccc1/C=N/NC(=O)CO
  Rango-impB inh = -1.2%
  miR-21 reporter = 0%
  Rango dissoc inh = 2%
  GLA inh pH 4.5 = 6

3	CC1CC2=C(C(=O)O1)C(c1ccccc1)Nc1ccccc1N2 (configuration not stated)
  Rango-impB inh = 0.9%
  miR-21 reporter = 0%
  Rango dissoc inh = 1%
  GLA inh pH 4.5 = -2

4	Cc1ccc(NC2CCCN(C(=O)c3ccccc3-c3ncc[nH]3)C2)cc1C (configuration not stated)
  Rango-impB inh = -10%
  miR-21 reporter = -7%
  Rango dissoc inh = -14%
  GLA inh pH 4.5 = .

# Going on with the list.
# The line under a structure holds: Rango-impB inh, miR-21 reporter, Rango dissoc inh, GLA inh pH 4.5
21. O=C(CC1C(=O)N(c2ccccc2)C(=O)N1C1CCCCC1)Nc1ccccc1 (configuration not stated)
→ -0.1%, -3%, 11%, 5
22. N#CC12CCCCC1CC1CCCCC1(C#N)N2CCO (configuration not stated)
→ 0.3%, -2%, -2%, -2
23. COc1ccc(Nc2nnc(C)c(=O)[nH]2)c(OC)c1
→ -0.3%, 1%, ?, 4
24. Cc1cccc(NC(=O)CN2C(=O)CSC2=O)c1
→ -0.1%, -3%, 1%, -4
25. O=C(COc1ccccc1)NCC(c1ccco1)N1CCN(c2ccc(F)cc2)CC1 (configuration not stated)
→ 1.8%, ., 7%, .
26. CC(C)Nc1nc(C#N)nc(NC(C)C)n1
→ -5.0%, -2%, 17%, -5
27. COC(=O)c1cc(Br)ccc1NC(=O)CSCc1c(C)noc1C
→ -2.2%, ., -18%, .
28. CC(C)(C)c1ccc(C(=O)NCCC(=O)Nc2ccc(S(=O)(=O)Nc3nccs3)cc2)cc1
→ -2.4%, ., -4%, .
29. COc1ccccc1NC(=O)Cn1cnc2c(cnn2-c2ccccc2)c1=O
→ -0.9%, 7%, -12%, 1
30. N#Cc1cc2c(nc1SCC(=O)N1CCOCC1)CCCCC2
→ -0.9%, -6%, -1%, 1
31. CCOC(=O)c1ccc(NC(=O)C2CC(=O)N(c3ccc4c(c3)OCCO4)C2)cc1 (configuration not stated)
→ -2.5%, ., 15%, .
32. O=C(CCC1CCCCC1)NCCN1C2=NC[C@H](Cc3ccc(O)cc3)N2C[C@H]1Cc1ccc(O)cc1
→ 2.4%, 0%, 14%, 4
33. Cc1cc(Br)ccc1NC(=O)CNC(=O)CN(C)C1CCS(=O)(=O)C1 (configuration not stated)
→ 0.5%, ., 10%, .
34. COc1ccc(S(=O)(=O)N2CCOCC2)cc1C(=O)N1CCCCCC1
→ -3.8%, -2%, 16%, .
35. COc1ccc(NC(=O)CSc2ccccc2)cn1
→ 2.2%, -37%, -11%, 8
36. S=c1nc(C2CCCCC2)n(-c2ccccc2)[nH]1
→ -3.2%, -9%, 0%, -1
37. COC(=O)C1=C(C)Nc2nnnn2C1c1ccccc1Cl (configuration not stated)
→ -0.7%, -5%, 11%, -2
38. O=C(NCCCN1CCOCC1)c1ccccc1N1C(=O)[C@@H]2Cc3c([nH]c4ccccc34)C(c3ccc(F)cc3)N2C1=O (some centres not stated)
→ ?, 15%, -13%, .
39. CC(OC1=CC(=O)CCC1)C(=O)c1ccccc1 (configuration not stated)
→ -5.9%, -5%, 12%, 11
40. CC[n+]1cccc(-c2nc3ccccc3s2)c1
→ 1.5%, -22%, 0%, -8
41. COc1cc(OC)c2ccc(=O)oc2c1C(CCN1CCOCC1)c1ccc2c(c1)OCO2 (configuration not stated)
→ -2.1%, ., 12%, -2
42. CN(C)c1oc(-c2ccc(OCc3ccccc3)cc2)nc1C#N
→ -1.5%, -46%, -3%, 3
43. O=C(NC1CCCCC1)N(CCN1CCOCC1)Cc1cc2cc3c(cc2[nH]c1=O)OCCO3
→ 1.9%, -16%, -11%, -1
44. CCCCn1c(N)c(N(CCOC)C(=O)c2cc(-c3ccc(OC)cc3)nc3ccccc23)c(=O)[nH]c1=O
→ -0.2%, ., -16%, .
45. CC(/C=C/c1ccccc1)=N/NC(=O)c1cnccn1
→ 3.7%, -15%, -7%, -11
46. CCOC(=O)C1=C(O)C(=O)N(c2ccc(S(N)(=O)=O)cc2)C1c1ccc(Cl)cc1 (configuration not stated)
→ -1.5%, 1%, 1%, -29
47. O=C(/C=C/c1ccco1)NCC(=O)N/N=C/c1ccccc1[N+](=O)[O-]
→ 0.8%, 1%, 4%, -6
48. O=C(NC1(C(F)(F)F)NC(=O)N(Cc2ccccc2)C1=O)c1cccs1 (configuration not stated)
→ 0.8%, ., -2%, .
49. COc1cccc(C(=O)CSc2nc3ccccc3n2CC(=O)N(C(C)C)C(C)C)c1
→ -0.6%, -9%, 3%, 5
50. CN(c1ccccc1)S(=O)(=O)c1ccc(NC(=O)c2nc(S(C)(=O)=O)ncc2Cl)cc1
→ ?, ?, 1%, .
51. CCc1nc(CN2CCN(c3cc(C(F)(F)F)ccn3)CC2)c(C)[nH]1
→ -0.7%, 9%, 2%, -2
52. COc1cccc(COc2nc3c(c(=O)n(C)c(=O)n3C)n2C)c1
→ 0.2%, -7%, 4%, 0
53. COc1ccc(S(=O)(=O)N2CCC(C(=O)NCC(c3cccs3)N(C)C)CC2)cc1 (configuration not stated)
→ 4.7%, -2%, -8%, -10
54. COc1ccc(OC)c(S(=O)(=O)N/N=C\c2c[nH]c3ccccc23)c1
→ 1.8%, 19%, -5%, .
55. Cc1c(N=C2NC(=O)C(CC(=O)Nc3ccccc3)S2)c(=O)n(-c2ccccc2)n1C (configuration not stated)
→ 1.2%, -3%, ?, -8
56. O=C(O)c1ccccc1C(=O)NCC(O)COc1ccc(Cl)cc1 (configuration not stated)
→ -0.5%, -8%, -2%, -5
57. CCc1ccccc1NC(=S)N1CCN(c2ccccc2F)CC1
→ -0.9%, 1%, 0%, .
58. COc1cc(OC)cc(C(=O)NC2CC3CCC(C2)N3C)c1 (configuration not stated)
→ 3.7%, ., -2%, .
59. C#CCN1C=CC(=O)[C@@H](OC(=O)Nc2ccc(Br)cc2)[C@H]1c1ccccc1Br
→ ?, ., -6%, .
60. N#CCCNc1ccc(OCCC#N)cc1
→ -0.5%, -6%, 1%, 4

# Complete entries, looked up by structure:
# `N#CCCNc1ccc(OCCC#N)cc1` is listed as Rango-impB inh: -0.5%; miR-21 reporter: -6%; Rango dissoc inh: 1%; GLA inh pH 4.5: 4
# `O=C(/C=C/c1ccco1)NCC(=O)N/N=C/c1ccccc1[N+](=O)[O-]` is listed as Rango-impB inh: 0.8%; miR-21 reporter: 1%; Rango dissoc inh: 4%; GLA inh pH 4.5: -6

# The list goes on:
# The line under a structure holds: Rango-impB inh, miR-21 reporter, Rango dissoc inh, GLA inh pH 4.5
61. Cc1ccc(-n2c(CSc3nc(C)cc(C)n3)nnc2SCC(=O)N2CCCC2)cc1
→ -1.8%, -10%, 0%, -6
62. Cc1ccc(-n2nnnc2SCC(=O)N2CCc3ccccc3C2)cc1
→ 3.3%, -15%, -3%, -27
63. NS(=O)(=O)c1ccc(NC(=S)NCc2cccc(Cl)c2)cc1
→ -4.1%, -2%, -11%, -1
64. CCOC(=O)CN1C(=O)CSc2ccc(S(=O)(=O)N3CCOCC3)cc21
→ 4.3%, 1%, 1%, .
65. CCOC(=O)N1CCN(C(=O)C2CCC(=O)N2C(C)C)CC1 (configuration not stated)
→ -1.1%, -6%, 1%, -2
66. C/C(=N\NC(=O)C1CCCC1)c1ccc(Cl)c(Cl)c1
→ 1.4%, -16%, 27%, .
67. C#CCOCCOCCOCCNc1nc(N2CCN(C(=O)[C@H](CCC(=O)O)n3cc(C(N)CO)nn3)CC2)nc(N2CCN(C(=O)[C@H](CCC(=O)O)n3cc(C(N)CO)nn3)CC2)n1 (some centres not stated)
→ ., 6%, ., 1
68. COc1cccc(NC(=O)COC(=O)C2CCN(S(=O)(=O)c3cccs3)CC2)c1
→ -0.9%, 0%, 8%, -14
69. c1nc(SSc2ncnc3nc[nH]c23)c2[nH]cnc2n1
→ -2.3%, ., 1%, .
70. Cc1cccn2c(CN[C@H]3CCCCNC3=O)c(C(=O)N3CCOCC3)nc12
→ -2.9%, 2%, 12%, -4
71. Cc1cc(C)c(S(=O)(=O)N2CCCOC2CNC(=O)C(=O)NCc2ccco2)c(C)c1 (configuration not stated)
→ 0.1%, -8%, 2%, 7
72. COc1ccc(NC(=O)Nc2nnc(-c3ccco3)s2)cc1
→ 0.9%, -62%, 13%, -16
73. CC(=O)OCC(=O)C1=CCC2C3CCC4=CC(=O)C=CC4(C)C3(F)C(OC(C)=O)CC12C (configuration not stated)
→ 0.3%, -8%, 0%, -12
74. c1ccc(CN2CN=C(Nc3nc4ccccc4s3)NC2)cc1
→ 0.5%, 2%, 26%, -3
75. CCOC(=O)c1ccc(S(=O)(=O)NC2CCCCCCC2)n1C
→ -1.9%, -1%, 7%, -3
76. Cc1noc(C)c1CSc1nnc(C)c(=O)[nH]1
→ 8.4%, 1%, 19%, 2
77. Cc1ccc(C(=O)c2c3ccc(C(F)(F)F)cc3nn2CCC(N)=O)cc1
→ 0.0%, ., 5%, .
78. CC1(OC(=O)c2ccco2)C(=O)C=C2C=C(C3CC3)OC=C2C1=O (configuration not stated)
→ ?, ., ?, -3
79. NC(=O)NCc1ccc(F)cc1
→ 3.6%, -2%, -9%, 1
80. O=c1c2[nH]c3ccccc3c2nc2n1CCS2
→ 1.3%, -16%, -4%, 1
81. CCC(=O)N1CCC2(CC1)Oc1ccc(Cl)cc1C(=O)C21CC(c2ccccc2)=NO1 (configuration not stated)
→ 0.6%, 7%, 3%, -9

# High-throughput results as filed in PubChem.
